Bioassay records deposited in PubChem by National Center for Advancing Translational Sciences (NCATS).
Six1-Eya2 blk: blocks human Six1 binding to Eya2; Q15475+O00167; AlphaScreen GST-Six1/His-Eya2 binding, biochemical; stronger effect = lower value; control for the full effect not named in the record; activity change, % (no concentration beside the values); actives 0.56% (n = 360,000); AID 651725; in the data active = activity change below about -65%; inconclusive = about -30% to -65%; inactive = above about -30%; also: % is scaled to controls: 0 for no effect and ±100 for the full control effect; compound concentration not given in the record
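Six1/Eya2 binding was read as AlphaScreen signal after compounds were pinned into GST-Six1 plus His-tagged Eya2 (5X stock 250/500 nM) in pH 8.0 Tris/NaCl/TCEP buffer, beads added, then incubated 1 h, 37 C, dark.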
CtBP-E1A blk: CtBP/E1A binding inhibition; AlphaScreen GST-E1A/His-CtBP binding, 1536-well; stronger effect = lower value; control for the full effect not named in the record; activity change, % (concentration not given with the values); actives 0.49% (n = 340,000); AID 651724; in the data active means activity change below about -65%; inconclusive means about -30% to -65%; inactive means above about -30%; also: % is scaled to controls: 0 for no effect and ±100 for the full control effect
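Steps: dispense buffer (Tris pH 8.0, NaCl 300 mM, TCEP 1 mM, BSA, Tween 20); add 5X protein mix (GST-E1A, His-CtBP, 125 nM each); pin 23 nL compound; 2 h at 37 °C, dark; add 5X beads (50 ug/mL); 1 h; read.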
TRPML1 agonist: activates the human TRPML1 channel; AID 624414; Q9GZU1; TRPML1-expressing cells, Ca2+ dye fluorescence, FDSS; host cell line not named in the record; reference of the full effect not given here; actives 0.12% (n = 410,000); activation, % (no concentration beside the values); in the data active = activation above about 50%; inconclusive = about 30% to 50%; inactive = below about 30%; also: 0% is about no effect; the text of the record puts the active cut at 80%
Target sequence (Q9GZU1 whole entry, looked up): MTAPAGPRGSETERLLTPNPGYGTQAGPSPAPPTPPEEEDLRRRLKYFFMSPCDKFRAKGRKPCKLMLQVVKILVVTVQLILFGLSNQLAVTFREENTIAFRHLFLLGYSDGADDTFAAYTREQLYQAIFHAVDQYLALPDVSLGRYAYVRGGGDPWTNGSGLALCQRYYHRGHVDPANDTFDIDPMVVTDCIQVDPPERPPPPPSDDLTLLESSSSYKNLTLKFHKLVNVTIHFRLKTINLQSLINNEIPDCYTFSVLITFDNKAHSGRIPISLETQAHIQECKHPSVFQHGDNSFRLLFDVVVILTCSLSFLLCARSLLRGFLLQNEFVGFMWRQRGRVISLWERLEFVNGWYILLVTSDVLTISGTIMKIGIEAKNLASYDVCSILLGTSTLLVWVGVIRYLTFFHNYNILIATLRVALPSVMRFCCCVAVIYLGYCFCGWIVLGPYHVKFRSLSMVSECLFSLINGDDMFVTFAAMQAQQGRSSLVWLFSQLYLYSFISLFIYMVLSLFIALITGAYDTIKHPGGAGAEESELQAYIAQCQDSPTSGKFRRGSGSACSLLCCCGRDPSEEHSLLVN
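Tet-induced TRPML1-DL cells, 1,500 per well, cultured overnight, were loaded with a no-wash Ca2+ dye for 45–90 min. Calcium fluorescence was recorded on the FDSS for 110 s after compound addition, before the EC80 agonist (4 uM 54-4) was added.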
D2 ag: human D2 receptor agonism in beta-arrestin assay; P14416; DiscoveRx PathHunter D2 beta-arrestin, luminescence, 90 min; 100% = 57 uM dopamine signal; activation, % (no concentration beside the values); actives 0.084% (n = 360,000); AID 624465; in the data active = activation above about 40%; inconclusive = about 15% to 40%; inactive = below about 15%; also: compound concentration not given in the record; the text of the record calls up to 30% inactive
Target sequence (P14416 whole entry, looked up): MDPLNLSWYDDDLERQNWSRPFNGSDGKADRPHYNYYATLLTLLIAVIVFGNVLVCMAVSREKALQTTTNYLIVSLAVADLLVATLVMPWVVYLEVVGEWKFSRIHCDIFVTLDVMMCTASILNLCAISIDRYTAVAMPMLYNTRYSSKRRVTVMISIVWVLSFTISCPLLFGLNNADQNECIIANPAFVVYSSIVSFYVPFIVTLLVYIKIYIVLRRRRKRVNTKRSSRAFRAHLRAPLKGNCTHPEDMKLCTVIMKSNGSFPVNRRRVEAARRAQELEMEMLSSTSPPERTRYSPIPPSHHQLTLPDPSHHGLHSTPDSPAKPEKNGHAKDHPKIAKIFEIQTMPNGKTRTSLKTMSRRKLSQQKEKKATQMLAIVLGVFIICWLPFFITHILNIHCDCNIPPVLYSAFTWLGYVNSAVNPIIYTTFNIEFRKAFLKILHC
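DiscoveRx PathHunter D2 beta-arrestin cells (2,100/well) attached overnight, then compound-stimulated 90 min at 37 C in HBSS/10 mM HEPES/0.1% Tween-20 buffer; beta-galactosidase complementation read by luminescence after 1 h at ambient temperature. Dopamine 57 uM final (EC100) as control.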
D2 PAM: positive allosteric modulators of human D2 dopamine receptor; actives 0.23% (n = 360,000); AID 624464; DiscoveRx D2 beta-arrestin cells, luminescence, 90 min; 100% = 57 uM dopamine signal; potentiation, % (test concentration not listed); P14416; active = potentiation of 50% or more; inconclusive = 30% to 50%; inactive = 30% or less;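 also: compound concentration not given in the record; tested on top of an EC20 dose of dopamine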
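PathHunter D2 cells, attached overnight at 37 deg C, received compound in DMSO plus dopamine at EC20 (50 nM final) for 90 min at 37 deg C. Beta-arrestin recruitment was read as luminescence after 1 h with detection reagent at ambient temperature.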
PINK1 modulator: modulators of PINK1 expression; AID 624263; Potency, µM (top dose mostly 76.6 µM), inactives show at the top dose activation (PINK1 increase), most hits filed as activators; PINK1 immunofluorescence, high-content cytometry, 24 h; actives 0.2% (n = 410,000); active = well fitted activation curve with a large enough effect; inconclusive = small, poorly fitted or top-dose-only effect; inactive = flat fitted curve, though single readings scatter; cell line not stated here;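 also: potency is read from the fitted curve at half-maximal effect; % of control where 0% means no effect; nearly all actives have a fitted effect of over 65% in size; a mitochondrial uncoupler was the plate control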
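PINK1 protein, normally rapidly degraded, was detected by immunofluorescence after 24 hour compound treatment of a stable cell line. Titration data (5 concentrations) came from laser-scanning cytometry, with CCCP-treated wells as controls.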
Active calls of the source: *; ? = inconclusive; . = not tested or not shown; [ ] = another dose, or the depositor's remark. Not a hit list; about 1.3% have a hit in one of these screens.

SMILES | Six1-Eya2 blk | CtBP-E1A blk | TRPML1 agonist | D2 ag | D2 PAM | PINK1 modulator
CN(C)S(=O)(=O)c1ccc(C(=O)NCC(=O)N/N=C/c2ccccc2)cc1 | 3 | -1 | 0.2 | -6.0 | -4 | -2.5%
CCN(CC(=O)Nc1ccc(NC(C)=O)cc1)C(=O)/C=C/c1ccc(C)o1 | -2 | 6 | -0.2 | -1.8 | -1 | 0.3%
O=C(Nc1cc(C(F)(F)F)ccc1N1CCCC1)C1=COCCO1 | -2 | -1 | 1.5 | -2.7 | -4 | -0.4%
Cn1c(=O)c2c(ncn2C)n(C)c1=O | 2 | 3 | 4.8 | -2.4 | 3 | 2.6%
CC(=O)Nc1ccc(NC(=O)c2c([N+](=O)[O-])cnn2C)cc1 | 4 | 24 | -0.2 | -2.6 | -1 | -1.0%
Cc1sc2nc(SCC(N)=O)n(-c3ccccc3)c(=O)c2c1C | -4 | 0 | -0.3 | -0.9 | -6 | -0.7%
Cc1nc(NC(=O)/C=C/c2ccccc2)sc1C(=O)Nc1ccccc1Cl | 4 | 0 | 0.5 | 1.1 | -2 | -0.6%
O=S1(=O)c2cccc3cccc(c23)N1Cc1nnc(-c2ccccc2Br)o1 | 15 | -2 | -0.5 | 5.6 | 10 | -1.6%
CN(CCOc1ccc(Cl)cc1)C(=O)c1cc(S(=O)(=O)N2CCOCC2)ccc1N1CCCC1 | -4 | -7 | 0.3 | 8.6 | -3 | -0.8%
CC1CCCCN1CCCNC(=O)c1ccc2nc(N3CCCCC3)sc2c1 (configuration not stated) | -4 | 2 | -0.9 | -5.3 | -3 | -0.6%
CC(C)n1c(SCC(=O)Nc2nc3c(s2)CCCC3)nc2c1c(=O)n(C)c(=O)n2C | -15 | -1 | -0.9 | -0.5 | 5 | -1.9%
Cc1nccn1CCCNC(=O)CC1C(=O)NCCN1Cc1ccccc1C(F)(F)F (configuration not stated) | 7 | 0 | 0.2 | 0.2 | -6 | -0.1%
CCCS(=O)(=O)NC(=O)C1(C)CCCN(C(=O)c2c(-c3ccccc3)noc2C)C1 (configuration not stated) | 8 | 5 | -0.2 | -3.0 | -10 | -0.2%
CCc1cc2c(SCC(=O)O)ncnc2s1 | 5 | 3 | 0.0 | -2.4 | -6 | -0.1%[38.3 µM]
Cc1cc2ccccn2c1C(=O)Nc1ccccc1 | -9 | 2 | -0.6 | -1.2 | -9 | 11%
O=[N+]([O-])c1ccc2nc(-c3ccc(Cl)cc3)[nH]c2c1 | -26 | . | -1.4 | 12 | 0 | ?
O=C(O)COCC(=O)N1CCc2c([nH]c3ccccc23)C1C(F)(F)F (configuration not stated) | 2 | 7 | . | -4.9 | 6 | 2.8%
Cc1cc(C(=O)NC2CCCCCC2)c2ccccc2n1 | 2 | -2 | 0.2 | -2.2 | -1 | 0.8%
O=C(Cn1cnc2ccccc21)Nc1ccc(C(=O)O)cc1 | -1 | 1 | 0.8 | -2.1 | -8 | 1.5%[38.3 µM]
N#CCOC(=O)[C@H](Cc1ccccc1)N1C(=O)c2ccccc2C1=O | -1 | . | 3.6 | -3.8 | -12 | -2.3%
CCN(CC)C(=O)Oc1ccc2ccccc2c1Br | 27 | 14 | 1.0 | -7.3 | -14 | 2.0%
O=C(Nc1ccccc1N1CCCC1)c1cccc(Cl)c1Cl | -10 | 2 | 0.8 | 2.3 | -4 | 2.5%
O=C(CCl)N1CCN(S(=O)(=O)Cc2ccccc2)CC1 | 20 | 17 | 0.6 | 0.9 | -3 | -0.4%
O=C(CCNC(=O)c1ccccc1Cl)NC1=NCCS1 | 7 | 0 | 1.4 | 3.8 | 1 | 0.7%
CCOc1ccccc1C(=O)NC1CCNCC1 | 9 | 0 | 0.6 | -7.0 | -4 | 0.0%
O=C(OCc1ccc(-c2ccccc2)cc1)c1cccc(O)c1 | 6 | 3 | 2.1 | -4.4 | -10 | 12%
Clc1ccc(CSc2nnc(-c3ccccn3)n2Cc2cccs2)cc1Cl | 0 | 2 | 1.1 | 2.3 | -3 | 19%
O=S(=O)(c1ccccc1)n1ccc(-c2cnc(-c3ccccc3)s2)n1 | -3 | 1 | 2.8 | -0.9 | 4 | 5.2%
Cc1nc2c(C)cccn2c1/C(O)=C1\C(=O)C(=O)N(CCN(C)C)C1c1ccncc1 (configuration not stated) | 0 | 8 | 0.0 | -0.2 | -15 | .
CCOC(=O)C1CCCN(S(=O)(=O)c2ccc(-c3cc(C)no3)s2)C1 (configuration not stated) | 5 | 7 | -1.4 | -2.7 | -5 | 2.8%
COc1ccc(-c2ccc(C(=O)Nc3ccccc3)c3occc23)c(C)c1 | 10 | 15 | -0.3 | 7.3 | -3 | 3.6%
Oc1ccc(C(=S)N2CCCCCC2)cc1 | 3 | -6 | 0.3 | -0.1 | 1 | 0.2%
CC(=O)N1CCc2c(sc(NC(=O)CS(=O)(=O)c3ccc(F)cc3)c2C(N)=O)C1 | -6 | -4 | 0.6 | -8.6 | 10 | -0.5%
CCCN(CCC)S(=O)(=O)c1cccc(C(=O)N=c2sccn2C)c1 | ? | -25 | 1.2 | 1.5 | -1 | -0.2%
CCN(CCn1cccn1)C(=O)C1CCC(=O)N(CC2CCCCC2)C1 (configuration not stated) | 4 | 6 | -0.7 | 3.5 | -4 | 0.5%
Cc1nc2ccc(NC(=O)CCS(=O)(=O)c3ccccc3)cc2s1 | 20 | . | -0.6 | -4.4 | -5 | -0.5%
CC(=O)C(=Cc1ccc(C(=O)O)cc1)C(C)=O | -9 | 8 | -0.7 | 7.2 | 5 | 0.1%
CC(C)Cc1csc(NC(=O)C(C)C)c1C(=O)O | 2 | -5 | . | -4.0 | 5 | -0.2%
COc1cccc(/C=C2\CCCCC2=O)c1 | 16 | -14 | 1.9 | -2.3 | -1 | -2.8%
COC(=O)COc1ccc2cc(-c3ccc(OC)cc3)c(=O)oc2c1 | 3 | 1 | -0.5 | -3.5 | 0 | -0.3%
COc1ccc(OCCN2CCCC2)cc1Nc1nnc(Cl)c(Nc2ccccc2S(C)(=O)=O)n1 | -13 | -14 | -0.1 | -1.2 | -22 | 15%
COc1cc(C(=O)NC2=NCCS2)cc(OC)c1OC | 0 | -3 | 0.1 | -2.7 | -8 | 0.2%
CCc1ccccc1NC(=O)N1C2CCCC1CC(NC(C)=O)C2 (configuration not stated) | 3 | 3 | 2.1 | -2.5 | 0 | -1.8%
CCc1ccc(-c2cc(C(F)(F)F)n3nc(C(=O)Nc4c(C)nn(Cc5ccccc5Cl)c4C)cc3n2)s1 | 5 | 3 | 0.4 | -1.6 | -4 | 2.3%[38.3 µM]
CCOc1ccc(NC(=O)CN2CCN(S(=O)(=O)c3ccc(Cl)cc3)CC2)cc1 | 0 | -1 | 1.3 | -2.5 | ? | 0.9%
COc1ccc(NC(=S)NCCSc2ccc(Cl)cc2)c(OC)c1 | -10 | 1 | 1.3 | -6.7 | -15 | 2.9%
CC1CC2(CC(C)(C(=O)CSc3n[nH]c(-c4ccccc4Cl)n3)OC2=O)C(=O)O1 (configuration not stated) | 10 | 19 | 2.2 | -1.2 | -9 | -3.0%
CC(C)[C@H](NC(=O)N1CCn2c1nc1ccccc12)C(=O)N[C@@H](Cc1ccccc1)C(=O)O | -1 | 4 | . | -5.9 | -15 | 0.7%
O=C(CC12CC3CC(CC(C3)C1)C2)N1CCCC1 | 4 | 8 | -0.6 | -3.8 | 1 | 1.8%[38.3 µM]
O=C(O)CCn1c(SCCOc2ccccc2F)nc2ccccc21 | 2 | . | -0.7 | -3.6 | -51 | -1.0%

Full records as entered above. Order of screens: Six1-Eya2 blk, CtBP-E1A blk, TRPML1 agonist, D2 ag, D2 PAM, PINK1 modulator
`CC(C)[C@H](NC(=O)N1CCn2c1nc1ccccc12)C(=O)N[C@@H](Cc1ccccc1)C(=O)O` as listed: -1, 4, ., -5.9, -15, 0.7%
`O=C(CC12CC3CC(CC(C3)C1)C2)N1CCCC1` as listed: 4, 8, -0.6, -3.8, 1, 1.8%[38.3 µM]
`CCc1ccc(-c2cc(C(F)(F)F)n3nc(C(=O)Nc4c(C)nn(Cc5ccccc5Cl)c4C)cc3n2)s1` as listed: 5, 3, 0.4, -1.6, -4, 2.3%[38.3 µM]

Not a retest: an excerpt of the list.
SMILES | Six1-Eya2 blk | CtBP-E1A blk | TRPML1 agonist | D2 ag | D2 PAM | PINK1 modulator
CN(C)S(=O)(=O)c1ccc(C(=O)NCC(=O)N/N=C/c2ccccc2)cc1 | 3 | -1 | 0.2 | -6.0 | -4 | -2.5%
CCN(CC(=O)Nc1ccc(NC(C)=O)cc1)C(=O)/C=C/c1ccc(C)o1 | -2 | 6 | -0.2 | -1.8 | -1 | 0.3%
O=C(Nc1cc(C(F)(F)F)ccc1N1CCCC1)C1=COCCO1 | -2 | -1 | 1.5 | -2.7 | -4 | -0.4%
Cn1c(=O)c2c(ncn2C)n(C)c1=O | 2 | 3 | 4.8 | -2.4 | 3 | 2.6%

(listing goes on)
SMILES | Six1-Eya2 blk | CtBP-E1A blk | TRPML1 agonist | D2 ag | D2 PAM | PINK1 modulator
C/C(=N\NC(=O)c1c[nH]c2ccccc12)c1ccc(C)s1 | -11 | 0 | 2.7 | -1.6 | -12 | 1.4%
CCOc1cc(CNc2ccc(N3CCN(C(C)=O)CC3)cc2)cc(Br)c1OC | ? | -21 | -0.4 | 13 | 74* | 2.2%
C[n+]1c2n(c3ccccc31)N=C(c1ccc(Cl)cc1)CS2 | -2 | -1 | 0.5 | -5.2 | -19 | ?
CCC(C)[C@H](NC(=O)c1cn(CC)c2cc3c(cc2c1=O)OCO3)C(=O)NCCCn1ccnc1 (some centres not stated) | -8 | -12 | -0.7 | -1.0 | 0 | 0.0%
COc1ccc(-c2cnn3c4c(c(C)nc23)CCN4C(C)C)cc1OC | 1 | 8 | -0.5 | 0.4 | -2 | 23%[38.3 µM]
COc1cc(OC)cc(C(=O)Nc2nnc(NC(=S)Nc3ccccc3)s2)c1 | 1 | -16 | -0.1 | -2.0 | -7 | 0.3%
CSCc1ccc(C(=O)NC2CC(C)(C)Cc3c2cnn3-c2ccc(F)cc2)o1 (configuration not stated) | -11 | -9 | -1.7 | -0.5 | -11 | 3.6%
N#CCCn1nnc2ccccc21 | 5 | 2 | -0.6 | -0.8 | -5 | 0.0%
Cc1ccc2c(c1C)-c1c(ccc(C)c1C)C(=O)C2=O | ? | -2 | 13 | 8.7 | 8 | -2.0%
Cn1c(CC(=O)Nc2ccc(F)cc2)nnc1SCC(=O)Nc1nncs1 | 1 | 3 | -0.2 | -3.4 | -5 | 1.5%
CCCN1CCC2(CC1)C(C#N)=C(N)Oc1c2sc2nc(C)cc(C)c12 | -20 | -17 | 6.2 | 11 | -3 | 2.1%
CN1CCN(C(=O)/C(=C/c2cccc([N+](=O)[O-])c2)NC(=O)c2ccccc2)CC1 | 9 | 0 | -0.8 | -6.4 | -12 | 3.5%
Clc1cccc(OCCCCN2CCCCC2)c1 | 13 | . | -0.4 | -4.1 | -4 | 0.4%
CC(C)(C)C(=O)Cn1c(=N)n(Cc2ccccc2Cl)c2ccccc21 | -5 | -6 | 0.3 | -5.8 | -16 | 7.9%
